Assay outcomes as filed in PubChem BioAssay.
SMARCA2 activ: SMARCA2 (BRM) function activators, primary screen, cell-based, luminescence, high throughput; MG213 cells, MMTV-luciferase reporter, dexamethasone, overnight; activation, % at 9.1 µM; 1% of 370,000 active; AID 652017, 2013; in the data active means activation above about 7.8%;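 further: 0% = vehicle wells and 100% = reference activator wells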
GAA850 FXN act: FXN promoter activators, primary screen, cell-based, luciferase luminescence, HEK293 lucGAA850; HEK293 lucGAA850 FXN promoter luciferase reporter, 24 h; percent of 10 µM SAHA response; activation, % at 6 µM; 0.56% of 360,000 active; AID 540364, 2011;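 active means activation above the average of all compounds screened plus 3 SD, cutoff fixed separately per campaign, cut at about 7.5% in these data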;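 further: 0% = DMSO wells and 100% = 10 µM SAHA wells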
ADAM17 inh: ADAM17 inhibitors, primary screen, biochemical, QFRET. Disintegrin and metalloproteinase domain-containing protein 17 (Homo sapiens), P78536. recombinant ADAM17, EDANS/DABCYL FRET peptide cleavage. inhibition, % at 6.95 µM. 0.83% of 370,000 active. AID 720648, 2013;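 active means inhibition above the mean of compounds lying between control limits plus 3 SD, set per campaign, cut at about 8.5% in these data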;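 further: 0% = DMSO-only wells as the low control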
PG9 binder: binders of HIV-1 gp120 antibody PG9, primary screen, biochemical, TR-FRET; TR-FRET gp120-PG9 antibody binding; inhibition, % at 6.7 µM; 0.43% of 360,000 active; in the data active means inhibition above about 8.5%
ADAM10 inh: human ADAM10 inhibitors, primary screen, biochemical, QFRET, HTS. Disintegrin and metalloproteinase domain-containing protein 10 (Homo sapiens), O14672. inhibition, % at 7 µM. AID 720582, 2013. 0.62% of 370,000 active. recombinant ADAM10, EDANS/DABCYL FRET peptide cleavage, 3 h;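 active means inhibition above a per-campaign cutoff equal to the mean of compounds falling between control-based bounds plus 3 SD, cut at about 20% in these data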;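 further: 0% = DMSO wells while the 100% control is not disclosed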
Target sequence (O14672 214-748 limits assumed): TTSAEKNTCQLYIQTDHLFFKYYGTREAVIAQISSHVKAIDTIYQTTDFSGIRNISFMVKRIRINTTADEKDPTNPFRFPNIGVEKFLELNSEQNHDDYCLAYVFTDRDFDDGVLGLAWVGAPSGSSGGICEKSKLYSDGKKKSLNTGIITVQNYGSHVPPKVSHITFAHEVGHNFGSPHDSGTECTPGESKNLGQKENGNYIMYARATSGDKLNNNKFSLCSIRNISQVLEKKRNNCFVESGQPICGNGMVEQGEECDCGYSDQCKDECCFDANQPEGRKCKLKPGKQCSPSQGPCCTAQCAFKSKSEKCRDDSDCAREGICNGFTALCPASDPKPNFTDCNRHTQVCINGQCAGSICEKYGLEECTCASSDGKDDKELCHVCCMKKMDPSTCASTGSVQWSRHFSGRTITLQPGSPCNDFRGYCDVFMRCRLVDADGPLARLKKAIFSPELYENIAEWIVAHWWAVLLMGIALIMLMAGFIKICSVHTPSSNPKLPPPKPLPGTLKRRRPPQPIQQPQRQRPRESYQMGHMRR
GC-A act: GC-A stimulated cGMP production enhancers – HEK293 GC-A cells, cGMP TR-FRET, EC30 ANP, primary screen | 0% at EC30 ANP, 100% saturating ANP | activation, % at 10 µM | 0.14% of 370,000 active; in the data active means activation above about 40%
The depositor's hits bear a star; nt = no result given; & = joins results of further samples.

| Structure | SMARCA2 activ | GAA850 FXN act | ADAM17 inh | PG9 binder | ADAM10 inh | GC-A act |
| --- | --- | --- | --- | --- | --- | --- |
| CC(=O)c1cn(Cc2ccccc2)c(=O)n(Cc2ccc(F)cc2)c1=O | 5 | 1.0 | -4 | 3.0 | 1 | 0 |
| CCN(CC)S(=O)(=O)c1ccc(-c2nnc(SCC(=O)N3CCc4ccccc43)o2)cc1 | -1 | 4.3 | 2 | -1.3 | -1 | 1 |
| CN(C)CCC(c1ccc(Br)cc1)c1ccccn1 (configuration not stated) | 0&6&1 | 0.5&-0.9&0.2 | -6&-6&-5 | 1.2&0.6&-1.5 | -9&-8&-1 | -29&-25&-24 |
| Cc1cn(Cc2ccccc2)c(=O)[nH]c1=O | -2 | -0.4 | 1 | 0.1 | -2 | 7 |
| C[N+]1(C)CCC(OC(=O)C(O)(c2ccccc2)C2CCCC2)C1 (configuration not stated) | -2 | 1.0 | -6 | 0.1 | 0 | 3 |
| Cc1ccc(NC(=O)c2ccc(CN3CCN(C)CC3)cc2)cc1Nc1nccc(-c2cccnc2)n1 | 6 | 1.5 | -7 | 1.0 | -8 | 0 |
| O=C(Nc1ccc(F)cc1)Nc1ccc2c(c1)OCO2 | 0 | 2.5 | -3 | -2.3 | 7 | 0 |
| CCN(CC)CC(=O)Nc1c(C)cccc1C | -7&-3&-6 | 1.0&2.4&1.3 | -6&-1&-6 | -2.4&-1.2&-2.4 | -1&1&2 | 4&-1&3 |
| CC(C)NCC(O)c1cc(O)cc(O)c1 (configuration not stated) | 1 | 2.0 | -3 | 0.9 | -14 | -4 |
| CN/C(=C\[N+](=O)[O-])NCCSCc1ccc(CN(C)C)o1 | 0 | -1.3 | -5 | 1.2 | 0 | -1 |
| CN(C)CC[C@@H](c1ccc(Br)cc1)c1ccccn1 | 3 | -1.3 | 0 | 0.1 | 2 | -24 |
| O=C(N/N=C/c1ccc2c(c1)OCO2)c1ccc(Br)o1 | 5 | 5.5 | -13 | -1.4 | -39 | 2 |
| COc1ccc(-c2noc(-c3ccco3)n2)cc1OC | 4 | 2.9 | -3 | 2.6 | -4 | 0 |
| CN(C)CCCN1c2ccccc2Sc2ccc(C(F)(F)F)cc21 | -3 | -1.7 | -9 | -2.3 | -17 | -29 |
| Fc1ccc(C(c2ccc(F)cc2)N2CCN(C/C=C/c3ccccc3)CC2)cc1 | -2 | -1.1 | 2 | -1.3 | -2 | -1 |

Reformatted: results already given
Cc1cn(Cc2ccccc2)c(=O)[nH]c1=O
  SMARCA2 activ: -2	GAA850 FXN act: -0.4	ADAM17 inh: 1	PG9 binder: 0.1	ADAM10 inh: -2	GC-A act: 7

Cc1ccc(NC(=O)c2ccc(CN3CCN(C)CC3)cc2)cc1Nc1nccc(-c2cccnc2)n1
  SMARCA2 activ: 6	GAA850 FXN act: 1.5	ADAM17 inh: -7	PG9 binder: 1.0	ADAM10 inh: -8	GC-A act: 0

CN(C)CCCN1c2ccccc2Sc2ccc(C(F)(F)F)cc21
  SMARCA2 activ: -3	GAA850 FXN act: -1.7	ADAM17 inh: -9	PG9 binder: -2.3	ADAM10 inh: -17	GC-A act: -29

Carrying on:
| Structure | SMARCA2 activ | GAA850 FXN act | ADAM17 inh | PG9 binder | ADAM10 inh | GC-A act |
| --- | --- | --- | --- | --- | --- | --- |
| CC(C)(C)c1ccc(NC(=O)c2ccccc2)c([N+](=O)[O-])c1 | 3 | 3.9 | -1 | -2.6 | 16 | -8 |
| CC1=NS(=O)(=O)c2cc(Cl)ccc2N1 | -3 | -1.1 | -4 | -1.2 | -5 | -1 |
| Cc1ccc(/C(=C\CN2CCCC2)c2ccccn2)cc1 | -4 | 0.3 | -5 | -0.4 | -7 | -8 |
| O=C(Nc1ccccc1)C(=O)Nc1ccccn1 | 8.0* | -3.2 | 3 | 0.9 | 7 | -4 |
| O=C(c1ccccc1)N1CCN(Cc2ccccc2)CC1 | 2 | 3.4 | -1 | -1.2 | 1 | 2 |
| CC(C)n1c(/C=C/[C@H](O)C[C@H](O)CC(=O)O)c(-c2ccc(F)cc2)c2ccccc21 | nt | -1.6 | nt | nt | nt | nt |
| Fc1ccccc1/C=N/Nc1ncnc2ccccc12 | 2 | 2.6 | -47 | -3.1 | -113 | -16 |
| Cc1ccc(CCC(=O)Nc2ccccc2F)s1 | 6 | 7.3 | -2 | -2.0 | 0 | 0 |
| CN(C)C(=O)Oc1ccc[n+](C)c1 | -4 | 1.8 | -3 | -2.8 | -10 | 0 |

2 of these compounds in a different format:
Order of values – SMARCA2 activ, GAA850 FXN act, ADAM17 inh, PG9 binder, ADAM10 inh, GC-A act
> CC(C)(C)c1ccc(NC(=O)c2ccccc2)c([N+](=O)[O-])c1
 : 3, 3.9, -1, -2.6, 16, -8
> CC1=NS(=O)(=O)c2cc(Cl)ccc2N1
 : -3, -1.1, -4, -1.2, -5, -1

Looked up above:
O=C(Nc1ccccc1)C(=O)Nc1ccccn1 @ SMARCA2 activ: 8.0*
Fc1ccccc1/C=N/Nc1ncnc2ccccc12 @ PG9 binder: -3.1

This is a subset; count on the stated rates, not on these rows.
